# Compound activity (PubChem BioAssay)
# CBX7 AlphaScr = CBX7 inhibition, primary AlphaScreen. O95931. AlphaScreen His6-CBX7 / biotin-H3K27me3 peptide binding; hits give low values. normalised signal (fraction of DMSO) (no concentration beside the values). AID 1224903. hit rate 1.1% among 66,000; in the data active = normalised signal below about 0.5;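 also: 100 nL library stock added to about 20 µL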
# Target sequence (O95931 whole entry, looked up): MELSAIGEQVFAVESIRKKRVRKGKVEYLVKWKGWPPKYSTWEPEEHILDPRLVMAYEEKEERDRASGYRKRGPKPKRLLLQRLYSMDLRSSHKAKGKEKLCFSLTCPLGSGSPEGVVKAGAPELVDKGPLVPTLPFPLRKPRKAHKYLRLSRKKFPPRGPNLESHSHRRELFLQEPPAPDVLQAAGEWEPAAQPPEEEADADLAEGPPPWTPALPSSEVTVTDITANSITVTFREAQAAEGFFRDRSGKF
# CBX7 AlphaScr z-score = further read-out of CBX7 AlphaScr, marked with its call; z-score; measured here: z-score of CBX7 signal; some inactives read as strong as hits; reference of the scale not given here;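 same signal on another scale; lower means less binding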
# * hit, by the source's call; & = joins results of further samples. These rows are one share of the data; count on the stated rates, not on these rows.
# Screens in order – CBX7 AlphaScr | CBX7 AlphaScr z-score
- COc1ccc2nnc(-c3ccc(Br)cc3)n2n1
 : 0.945 | -0.79
- CCOc1ccccc1NC(=O)c1cnc2scc(C)n2c1=O
 : 1.06 | 2.31
- CCOc1ccc(Sc2cc(C(=O)NCCC(C)C)c3ccccc3n2)cc1
 : 1.05 | 1.58
- CCCCN(C)C(=O)c1ccc(NC2=NC3CS(=O)(=O)CC3S2)cc1 (centres undefined)
 : 0.977 | -0.424
- COc1ccc(OC)c(NC(=O)Cn2cnc3sc(C)cc3c2=O)c1
 : 1.01 | 0.385
- O=C(CN1CCN(Cc2ccc(Cl)cc2)C1=O)NCc1cccs1
 : 0.991 | -0.121
- C=CCc1ccccc1OCC(O)CN1CCCCC1 (centres undefined)
 : 1 | 0.128
- CCc1nnc(NC(=O)c2ccc(Br)cc2)s1
 : 1.13 | 1.25
- OC1(c2ccc3c(c2)c2c4n3CCN(Cc3ccccc3)C4CCC2)CCCC1 (centres undefined)
 : 0.369* | -7.12*
- O=C(CCCn1c(=O)[nH]c2cc(Cl)ccc2c1=O)NCc1cccnc1
 : 1.05 | 1.87
- COc1ccccc1-n1nc(C(=O)N2CCC(C)CC2)c2ccccc2c1=O
 : 0.957 | -0.764
- O=C(Cn1nnc(-c2ccccc2Cl)n1)Nc1ccc(F)cc1F
 : 0.838 | -0.22
- CCn1c(SCC(=O)NCc2ccc(F)cc2)nnc1-c1c[nH]c2ccccc12
 : 1.14 | 0.878
- O=C(Nc1nnc(-c2ccc(Br)cc2)s1)c1ccccc1F
 : 1 | 0.156
- NS(=O)(=O)c1ccc(CCNC(=O)CCn2c(=O)[nH]c3ccsc3c2=O)cc1
 : 0.998 | -0.0516
- CCC(=O)N1CCc2cc(S(=O)(=O)NCCC(=O)NC(C)c3ccccc3)ccc21 (centres undefined)
 : 1.01 | 0.262
- O=C(Nc1ccc(Cl)c(Cl)c1)c1cc2n(n1)C(C(F)(F)F)CC(c1cccs1)N2 (centres undefined)
 : 0.993 | -0.139
- COc1ccc(OCC(=O)Nc2ccc3oc(-c4cccnc4)nc3c2)cc1
 : 0.997 | -0.0566
- COc1ccc(NC(=O)CCNC(=O)Cn2ccc3ccccc3c2=O)cc1Cl
 : 0.986 | -0.351
- Cc1ccc(-n2c(Cc3cccn3C)nnc2SCC(=O)Nc2ccc(F)cc2)cc1
 : 0.956 | -1.06
- CC(C)N1C(=O)CCC1C(=O)N1CCN(Cc2ccccc2)CC1 (centres undefined)
 : 0.991 | -0.161
- Cc1ccc(-c2nc(NC(=O)c3ccc(C(C)(C)C)cc3)sc2C)cc1
 : 0.987 | -0.369
- Cc1cc(C)cc(NC2c3ccccc3C(=O)N2c2cc(C)ccn2)c1 (centres undefined)
 : 1.03 | 0.912
- COc1cccc(N2C(=O)CN=C2Nc2nc(C)cc(C)n2)c1
 : 1.03 | 0.0281
- Cc1cc(=O)n2nc(N3CCC(C(=O)NC(C)C)CC3)sc2n1
 : 1.02 | 1.05
- Cc1c(C)n(C)c2ccc(C(=O)Nc3ccc(S(=O)(=O)N4CCCC4)cc3)cc12
 : 0.784 | -3.86
- O=C(c1cc(-c2ccc(F)cc2)on1)N1CCCc2ccccc21
 : 0.81 | -0.25
- COc1ccc(C2CC(=O)C3=C(C2)Nc2ccccc2NC3c2cccnc2)cc1OC (centres undefined)
 : 0.989 | -0.46
- Cc1cc(NC(=O)c2cc3n(n2)C(C(F)(F)F)CC(c2ccc(Cl)c(Cl)c2)N3)no1 (centres undefined)
 : 1.11 | 1.38
- Cc1ccccc1OCC(O)Cn1c(C(F)(F)F)nc2ccccc21 (centres undefined)
 : 1.06 | 2.33

# Among those listed so far, these contain an aryl thioether with sulfur outside any ring:
# Screens in order – CBX7 AlphaScr | CBX7 AlphaScr z-score
- CCOc1ccc(Sc2cc(C(=O)NCCC(C)C)c3ccccc3n2)cc1
 : 1.05 | 1.58
- CCn1c(SCC(=O)NCc2ccc(F)cc2)nnc1-c1c[nH]c2ccccc12
 : 1.14 | 0.878
- Cc1ccc(-n2c(Cc3cccn3C)nnc2SCC(=O)Nc2ccc(F)cc2)cc1
 : 0.956 | -1.06

# (further entries)
# Screens in order – CBX7 AlphaScr | CBX7 AlphaScr z-score
- CCOC(=O)c1c(C)n(CCC(=O)O)c2ccc(OC)cc12
 : 1.03 | 0.298
- CCOCCn1c(CN2CCN(Cc3ccccc3)CC2)nc2c1c(=O)[nH]c(=O)n2C
 : 1.03 | 1.07
- Cc1nc(Oc2ccc(C(C)C)cc2)c2c3c(sc2n1)CCC3
 : 1.02 | 0.243
- CCOC(=O)c1cnc2c(C)cccc2c1Nc1ccc(Cl)cc1C
 : 1.03 | 0.378
- Fc1ccc(-c2nnc3sc(CN4CCCCC4)cn23)cc1
 : 1.01 | 0.451
- CCOC(=O)c1cccc(NC(=O)C2CCN(S(=O)(=O)c3cnc[nH]3)CC2)c1
 : 1.09 | 1.37
- O=C(O)c1cccc(N2C(=O)C3C4C=CC(C4=C(c4ccccc4)c4ccccc4)C3C2=O)c1 (centres undefined)
 : 1.02 | 0.948
- Cc1cccc(Cn2c(-c3cccs3)nc3ccccc32)c1
 : 1.05 | 0.701
- CCCN(C(=O)Cn1nc(Cc2ccncc2)c2ccccc2c1=O)c1ccc(CC)cc1
 : 0.919 | -3.05
- CCC(=O)N1CCc2cc(S(=O)(=O)NCCC(=O)NCc3ccc(C)cc3)ccc21
 : 0.979 | -0.751
- CCN(CC)c1cc(C)c2cc(NC(=O)CCC3CCCC3)ccc2n1
 : 1.15 | 1.63
- COc1ccc(CCNC(=O)CCN2C(=O)c3ccccc3C2=O)cc1
 : 1.05 | 2.16
- COc1ccc(CCNC(=O)CN2C(=O)COc3ccccc32)cc1OC
 : 1.09 | 2.91
- CC(c1nc2ccccc2o1)N1C(=O)c2ccccc2C1=O (centres undefined)
 : 0.927 | -0.939
- CCCN1Cc2cccc(C(=O)Nc3ccc(C)c(F)c3)c2C1=O
 : 0.924 | -0.865
- CC(=O)Nc1ccc(S(=O)(=O)Nc2ccc(S(=O)(=O)Nc3nccc(C)n3)cc2)cc1
 : 1.04 | 1.05
- O=C(Nc1ccc(Br)cc1)NC(c1ccccc1)c1ccccc1
 : 0.956 | -0.5
- CCN(CC)c1cc(C)c2cc(NC(=O)Cc3cccs3)ccc2n1
 : 1.17 | 1.85
- Cc1nc2cc(-c3ccccc3)nn2c(C)c1CCC(=O)N1CCC(Cc2ccccc2)CC1
 : 1.03 | 1.15
- Clc1cccc(Nc2nc3nonc3nc2N2CCCCC2)c1
 : 0.994 | -0.212
- Cc1cc(C)c(Cc2c(C)nc3c(C(=O)NCc4ccc5c(c4)OCO5)cnn3c2C)c(C)c1
 : 0.934 | -1.93
- CCOc1cccc(C(=O)Nc2ccc3oc(-c4cccnc4)nc3c2)c1
 : 0.958 | -0.0556
- COc1ccc(N2CCN(C(=O)Cn3nc(Cc4ccncc4)c4ccccc4c3=O)CC2)cc1
 : 0.95 | -0.908
- CCn1c(C(=O)N2CCC(C(=O)N3CCN(C)CC3)CC2)cc2sccc21
 : 0.993 | -0.0314
- CCOC(=O)c1ccc(Nc2nnc(C(C)(C)C)c(=O)[nH]2)cc1
 : 0.496* | -8.71*
- CC1CCN(S(=O)(=O)c2ccc3nc(-c4cccnc4)cc(C(=O)NC4CCCC4)c3c2)CC1
 : 1.04 | 0.947
- CCN(CC)CCCNC(=O)CS(=O)(=O)Cc1nc(-c2ccc(C)cc2)oc1C
 : 1.02 | 0.061
- CCOc1ccc(-c2nnc(Nc3ccc(C)cc3)c3ccccc23)cc1
 : 0.587 | -1.94
- O=C(Nc1ccccc1-c1nc2ccccc2s1)c1ccccc1F
 : 1.34 | 9.27
- c1ccc(CN2CCC(Nc3nnc(Cc4ccncc4)c4ccccc34)CC2)cc1
 : 1 | 0.0377
- COCc1nnc(NC(=O)c2ccc(S(=O)(=O)N3CCCCC3C)cc2)o1 (centres undefined)
 : 0.736 | -7.09
- COCCCNC(=O)CCCNC(=O)Cn1cnc2sc(C)c(C)c2c1=O
 : 0.967 | -0.681
- O=C(NCCc1ccccc1)C1c2ccccc2C(=O)N1Cc1ccccc1Cl (centres undefined)
 : 0.853 | -0.517
- Cc1ccc2nc(SCc3ccc(F)cc3)[nH]c2c1
 : 1.1 | 3.85
- Cc1ccc(N2CC(c3nc4ccccc4n3CC(=O)N(c3ccccc3)C(C)C)CC2=O)cc1C (centres undefined)
 : 0.854 | -3.32
- O=c1[nH]c(-c2ccc(F)cc2)nc2sc3c(c12)CCCC3
 : 1.06&1.03 | 0.448&0.646
- CCc1ccc2oc(-c3ccc(NC(=O)COc4ccc(Cl)cc4C)cc3)nc2c1
 : 0.936 | -1.09
- CCOc1cc2c(cc1OCC)C(c1ccc(C#N)cc1)NCC2 (centres undefined)
 : 1.1 | 0.287
- O=S(=O)(c1ccccc1)n1c(/C=C/c2ccccc2Cl)nc2ccccc21
 : 1.1 | 2.09
- COc1ccc(Cl)cc1-c1nc(-c2cccs2)no1
 : 1.12 | 5.75
- O=C(NCCC1=CCCCC1)c1ccc2c(c1)NC(=O)c1ccccc1S2
 : 0.888 | -4.51
- CC1CCCCN1C(=O)CN1C(=O)COc2ccc(S(=O)(=O)N3CCCCCC3)cc21 (centres undefined)
 : 1.05 | 0.114
- Cc1ccccc1CN1C(=O)CSc2ccc(C(=O)N3CCOCC3)cc21
 : 1.07 | 2.84
- COc1ccc2nc(Nc3ncc4c(n3)CC(C)(C)CC4=O)nc(C)c2c1
 : 0.965 | -0.463
- CC(C)c1ccc(-c2csc(NC(=O)c3ccc(Br)cc3)n2)cc1
 : 1.09 | 1.33
- COc1ccc(N2Cc3cccc(C(=O)NCCc4cnc5cc(C)ccn45)c3C2=O)cc1
 : 0.884 | -1.8
- Cc1c(C(=O)N2CCN(C)CC2)oc2ccc(S(=O)(=O)N3CC(C)CC(C)C3)cc12 (centres undefined)
 : 1.1 | 0.484
- O=C(NCc1ccc(Cl)cc1)c1cc(-c2cccs2)on1
 : 0.933 | -0.923
- Cc1ccc(NC(=O)CCc2nc(-c3ccccc3F)no2)c(Cl)c1
 : 1.03 | 0.486
- CCN(CCCNC(=O)c1csc2c1CCCCC2)Cc1ccccc1
 : 1.03 | 0.684

# Pulled by compound from above, three records:
# Screens in order – CBX7 AlphaScr | CBX7 AlphaScr z-score
- O=C(Nc1ccc(Cl)c(Cl)c1)c1cc2n(n1)C(C(F)(F)F)CC(c1cccs1)N2 (centres undefined)
 : 0.993 | -0.139
- C=CCc1ccccc1OCC(O)CN1CCCCC1 (centres undefined)
 : 1 | 0.128
- CCOc1ccc(-c2nnc(Nc3ccc(C)cc3)c3ccccc23)cc1
 : 0.587 | -1.94

# The results go on.
# Screens in order – CBX7 AlphaScr | CBX7 AlphaScr z-score
- O=C(c1cc2n(n1)C(C(F)(F)F)CC(c1ccc(F)cc1)N2)N1CCOCC1 (centres undefined)
 : 1.02 | 0.399
- CCOC(=O)c1cc(-c2ccc(OC)cc2OC)no1
 : 0.979 | -0.627
- Cc1cc(N2CCOCC2)nc2ccc(NC(=O)c3cnccn3)cc12
 : 1.07 | 2.97
- COc1cccc(NC(=O)c2oc3ccc(S(=O)(=O)N4CCCC4)cc3c2C)c1
 : 1.08 | 1.44
- CCC(=O)N1CCc2cc(S(=O)(=O)Nc3ccc(C(C)C)cc3)ccc21
 : 1.05 | 0.901
- COc1ccc(-n2c(Cc3cc(=O)[nH]c(=O)[nH]3)nnc2SCC(=O)Nc2ccccc2)cc1
 : 1.01 | 0.136
- CC1CCCCC1NC(=O)CN1CCN(Cc2cccc(Cl)c2)C1=O (centres undefined)
 : 0.907 | -1.7
- CCCNC(=O)C1CCN(S(=O)(=O)c2cccc3nonc23)CC1
 : 1.09 | 0.113
- N=c1n(CCO)c2ccccc2n1CCOc1ccc(Br)cc1
 : 1.01 | 0.0536
- Cc1ccc(C)c(CSc2nnc(Cc3cc(=O)[nH]c(=O)[nH]3)n2-c2cc(C)ccc2C)c1
 : 1.18 | 0.365
- O=C(CN1C(=O)CSc2ccc(S(=O)(=O)N3CCCCC3)cc21)N1CCCC1
 : 0.99 | -0.19
- Cc1ccccc1OCC(O)Cn1c(=N)n(CCN2CCCCC2)c2ccccc21 (centres undefined)
 : 0.872 | -1.86
- CCOc1ccc(-c2cn(-c3ccc(C)cc3)c(=O)[nH]2)cc1Cl
 : 1.08 | 1.99
- CCOC(CNC(=O)c1ccc2c(c1)ncn2-c1cccc(C)c1)OCC
 : 0.964 | -0.618
- CC(C)c1ccc(NC(=O)C(c2ccccc2)N(C)C(=O)c2cnccn2)cc1 (centres undefined)
 : 1.03 | 0.167
- CCOc1ccc(CCN2C(=O)CCC2(C)C(=O)NCc2cccnc2)cc1OCC (centres undefined)
 : 1.04 | 1.45
- CCOC(=O)N1CCc2c(sc(NCc3ccccn3)c2C(=O)Nc2ccccc2OCC)C1
 : 0.839 | -8.33
- O=C(Cc1c(C(=O)O)[nH]c2ccccc12)NCCCN1CCN(c2cccc(Cl)c2)CC1
 : 0.984 | -0.556
- Cn1nc(-c2ccccc2F)c2cc(C(=O)NCC3COc4ccccc4O3)sc21 (centres undefined)
 : 0.89 | -1.8
- Cc1cc(N2CCCCC2)nc2ccc(NC(=O)CCC(=O)NCc3ccc4c(c3)OCO4)cc12
 : 1.04 | 1.84
- CC1(C(=O)NC2CCCC2)CCC(=O)N1Cc1ccccc1 (centres undefined)
 : 0.868 | -2.17
- CCN(CC)S(=O)(=O)c1ccc2oc(C(=O)NC3CCCc4ccccc43)c(C)c2c1 (centres undefined)
 : 0.92 | -0.806
- COc1ccc(Nc2cc(C(=O)NCCCSC3CCCCC3)c3ccccc3n2)cc1
 : 1 | 0.0051
- COc1ccccc1N(CC(O)CN1CCCCC1)S(=O)(=O)c1ccc(C)cc1 (centres undefined)
 : 1.02 | 0.624
- CC(=O)N1CCc2cc(S(=O)(=O)NCCC(=O)NC3CCCc4ccccc43)ccc21 (centres undefined)
 : 0.992 | -0.327
- CN(Cc1ccccc1)C(=O)CN(C)S(=O)(=O)c1cnc[nH]1
 : 0.793 | -2.25
- COc1ccc(NC(=O)CSc2nnc(Cc3cc(=O)[nH]c(=O)[nH]3)n2-c2ccccc2)cc1
 : 1.07 | 2.32
- CCOC(=O)c1cnc2cc(C(F)(F)F)ccc2c1N1CCN(c2ccccc2F)CC1
 : 1.08 | 1.45
- CCCSCCCNC(=O)Cn1ncc2ccsc2c1=O
 : 0.855 | -1.86
